# Bioassay records deposited in PubChem BioAssay by National Center for Advancing Translational Sciences (NCATS).
# TRPV1 PAM: HTS Assay for Compounds that Act as Potentiators of the Vanilloid Receptor 1 | Transient receptor potential cation channel subfamily V member 1 (Homo sapiens), Q8NER1 | TRPV1-expressing cells, Fluo-8 calcium influx, capsaicin EC20 potentiation; host cell line not named in the record; control for the full effect not named in the record | potentiation, % at 8.33 µM | 320,000 compounds, 0.02% hits | AID 540277, 2011; active means potentiation above 80%; inconclusive means 30% to 80%; inactive means below 30%; note: 0% is about no effect
# Target sequence (Q8NER1 whole entry, looked up): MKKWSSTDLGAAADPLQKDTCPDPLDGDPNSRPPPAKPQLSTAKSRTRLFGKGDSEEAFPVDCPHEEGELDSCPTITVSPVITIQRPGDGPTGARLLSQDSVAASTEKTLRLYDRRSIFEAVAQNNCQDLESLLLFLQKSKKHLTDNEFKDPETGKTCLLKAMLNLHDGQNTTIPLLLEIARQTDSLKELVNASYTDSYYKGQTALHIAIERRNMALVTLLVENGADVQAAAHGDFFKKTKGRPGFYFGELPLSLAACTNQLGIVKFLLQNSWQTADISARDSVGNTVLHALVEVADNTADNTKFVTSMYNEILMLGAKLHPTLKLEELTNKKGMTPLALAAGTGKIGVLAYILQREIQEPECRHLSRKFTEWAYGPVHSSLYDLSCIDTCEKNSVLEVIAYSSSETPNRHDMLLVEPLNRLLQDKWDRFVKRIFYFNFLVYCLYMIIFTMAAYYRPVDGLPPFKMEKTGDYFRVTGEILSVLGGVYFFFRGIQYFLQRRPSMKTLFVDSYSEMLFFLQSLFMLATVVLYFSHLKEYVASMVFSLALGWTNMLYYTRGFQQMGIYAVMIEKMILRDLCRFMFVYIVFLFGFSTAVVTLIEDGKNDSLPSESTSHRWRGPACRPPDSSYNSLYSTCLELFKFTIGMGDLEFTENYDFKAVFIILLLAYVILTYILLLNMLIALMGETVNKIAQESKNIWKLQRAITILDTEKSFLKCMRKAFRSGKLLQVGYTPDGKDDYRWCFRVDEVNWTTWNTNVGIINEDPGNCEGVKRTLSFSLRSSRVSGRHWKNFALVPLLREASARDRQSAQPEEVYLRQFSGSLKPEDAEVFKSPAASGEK
#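 TRPV1-expressing cells were cultured overnight at 35.5C and loaded with Fluo-8 calcium dye for 40 to 90 min at room temperature. After a 10 s baseline, compound was added and calcium influx was read kinetically for 3 min (ex 480/em 520 nm).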
# gsp agonist: qHTS for Agonist of gsp, the Etiologic Mutation Responsible for Fibrous Dysplasia/McCune-Albright Syndrome: qHTS | AID 624287, 2012 | gsp mutant cells, cAMP HTRF, 30 min; control for the full effect not named in the record | Potency, µM (top dose mostly 76.9 µM), without a hit: at the top dose activation (cAMP increase), hits mostly activators | 340,000 compounds, 0.13% hits; active = well fitted activation curve with a large enough effect; inconclusive = small, poorly fitted or top-dose-only effect, or another doubt; inactive = no such curve, though single readings can be large or run the other way; cell line not stated here;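 note: phosphodiesterase inhibitor Ro 20-1724 added with compounds to block cAMP breakdown; potency is the fitted concentration of half-maximal effect; nearly all actives have a fitted effect of over 60% in size; about a fifth of the inactives were tested at one dose only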
#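 Cells stably selected in G418 were plated at 2000/well, grown 16-24 hr, then given compounds in DMSO with the PDE inhibitor […] (300 uM solution added) for 30 min at 37C; cAMP was read by HTRF.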
# ClpP mod: qHTS Assay for Activators of ClpP; 340,000 compounds, 1.9% hits; AID 651965, 2013; ATP-dependent Clp protease proteolytic subunit (Bacillus subtilis (strain 168)), P80244; Potency, µM (top dose mostly 57.5 µM), without a hit: top-dose activity change, negative = active; purified B. subtilis ClpP, FRET peptide cleavage, 20 min; active = well fitted falling curve with a large enough effect; inconclusive = small, poorly fitted or top-dose-only effect; inactive = no such curve, though single readings can be large or run the other way; note: potency is the fitted concentration of half-maximal effect; the source files actives as falling curves though it sought activators and does not explain the sign; nearly all actives have a fitted effect of over 65% in size; many hits overshoot -100%
# Target sequence (P80244 whole entry, looked up): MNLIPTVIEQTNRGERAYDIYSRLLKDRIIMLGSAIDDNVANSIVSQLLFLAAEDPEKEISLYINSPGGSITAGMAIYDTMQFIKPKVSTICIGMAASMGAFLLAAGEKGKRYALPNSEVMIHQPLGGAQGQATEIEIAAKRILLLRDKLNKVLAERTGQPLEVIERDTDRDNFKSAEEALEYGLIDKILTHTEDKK
#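 Buffer: 100 mM Tris/HCl pH8, 100 mM KCl, 0.05% low protease BSA, 2.5% glycerol, 0.01% Tween-20. ClpP 10 microg/mL final; 20 min RT; delta FRET normalized to ADEP and DMSO controls.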
# Menin-MLL FL inh: qHTS Assay for Inhibitors Targeting the Menin-MLL Interaction in MLL Related Leukemias: Competition With Fluorescein Labeled MLL-derived Peptide. AID 1766, 2009. FP activity change, % at 61.4 µM. Fluorescence polarization, fluorescein-MLL peptide displacement from menin. 290,000 tested, under 10 active; inconclusive = falling polarisation curve, or a change in total fluorescence; inactive = total fluorescence flat and polarisation flat or rising; no compound was filed as active; the % refers to the polarisation; negative = inhibition;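 note: % of control where 0% means no effect; inhibitors lower the polarisation; unlabelled MLL peptide was the positive control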
# Sfp inh: qHTS Assay for Inhibitors of Bacillus subtilis Sfp phosphopantetheinyl transferase (PPTase). Biochemical Sfp PPTase activity, qHTS. Potency, µM, inactives show max response, negative = inhibition, actives largely listed as inhibitors. 310,000 compounds, 3.5% hits. AID 1490, 2009; active = well fitted inhibition curve with a large enough effect; inconclusive = small, poorly fitted or top-dose-only effect, or another doubt; inactive = no such curve, though single readings can be large or run the other way;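 note: the enzyme is Sfp with the accession as filed and its product quenches rhodamine fluorescence; potency is the fitted concentration of half-maximal effect; 0% = enzyme reaction without inhibitor and -100% = no enzyme wells; top concentration of the series not given in the record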
#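 Reaction rates are the 30-min fluorescence difference (ex 525, em 598 nm) in wells containing 15 nM Sfp, 5 uM rhodamine-CoA and 12.5 uM BHQ-2-YbbR at pH 7.6 with 10 mM MgCl2.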
# gsp antagonist: qHTS for Antagonists of gsp, the Etiologic Mutation Responsible for Fibrous Dysplasia/McCune-Albright Syndrome: qHTS; Potency, µM (series often up to 76.9 µM), inactives show top-dose activity change, negative = inhibition, usual class: inhibitors; 340,000 compounds, 0.4% hits; gsp-mutant cells, cAMP HTRF, 30 min; control for the full effect not named in the record; AID 624288, 2012; active = falling curve of any shape with a large fitted effect; inconclusive = falling curve, mostly with a smaller effect; inactive = flat or rising curve; cell line not stated here;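 note: intracellular cAMP measured with PDE inhibitor Ro 20-1724 present during compound exposure; potency is the fitted concentration of half-maximal effect; % is set by controls: 0 for no effect and ±100 for the full control effect; nearly all actives have a fitted effect of over 65% in size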
#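 Cells in G418 medium, seeded 16-24 h, 37C; buffer exchange to DPBS + 1 mM CaCl2, 0.5 mM MgCl2, 0.05% BSA; cpds in DMSO + […] (300 uM stock), 30 min 37C; HTRF cAMP detection.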
# CtBP-E1A inh: qHTS Assay for Inhibitors of the CtBP/E1A Interaction; CtBP / adenovirus E1A interaction (AlphaScreen); AlphaScreen GST-E1A/His-CtBP binding, 1536-well; active compounds read low; control for the full effect not named in the record; activity change, % (no concentration beside the values); 340,000 compounds, 0.49% hits; in the data active means activity change below about -65%; inconclusive means about -30% to -65%; inactive means above about -30%; note: % is set by controls: 0 for no effect and ±100 for the full control effect
#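 Steps: dispense buffer (Tris pH 8.0, NaCl 300 mM, TCEP 1 mM, BSA, Tween 20); add 5X protein mix (GST-E1A, His-CtBP, 125 nM each); pin 23 nL compound; 2 h at 37 °C, dark; add 5X beads (50 ug/mL); 1 h; read.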
# * hit, by the source's call; u = inconclusive; x = not tested or not shown; [ ] = another dose, or the depositor's remark.
SMILES,TRPV1 PAM,gsp agonist,ClpP mod,Menin-MLL FL inh,Sfp inh,gsp antagonist,CtBP-E1A inh
CCCn1c(SCC(=O)NC2CCCCC2)nnc1-c1cccnc1,2,-3%,x,1.1,17%,15%,6
CCOC(=O)C1=C(COC(=O)c2cc(S(=O)(=O)N3CCOCC3)ccc2F)NC(=O)NC1C (stereo not drawn),x,2%,-2.8%,x,x,0%,-4
O=C(c1ccco1)N1CCN(C(=O)c2cccn3c(=O)c4c5c(sc4nc23)CCCC5)CC1,x,-1%,-17%,x,x,-4%,0
CCOC(=O)c1ccc(N=NN(C)C)cc1,-6,-13%[15.4 µM],x,1.8,11%,5%,-5
COc1ccc2c(C)cc(SCC(=O)Nc3ncc(Cl)cc3Cl)nc2c1,15,19%,12%,u,-9%,-3%,-14
O=C(Nc1cccn(Cc2c(Cl)cccc2Cl)c1=O)c1ccc(Cl)cc1,x,-18%,-30%,1.0,1%,2%,4
NC(=O)C1CCN(C(=O)/C=C/c2cc(Br)ccc2F)CC1,-17,11%[15.4 µM],x,-1.1,9%,-51%,16
CC(C)NC(=O)c1onc(CSc2ccccc2)c1C(=O)O,7,14%,2.0%,2.3,14%,8%,0
CCn1ccnc1CN(C)Cc1nc(-c2ccc3c(c2)OCO3)no1,2,-56%[inhibitor],x,3.1,-9%,0%,3
CC(NC(=S)NCCCN1CCOCC1)C12CC3CC(CC(C3)C1)C2 (stereo not drawn),10,2%,-0.4%,-1.9,-11%,4%,-4
COc1cccc(Oc2cc(Cl)nc(N)n2)c1,u,-14%,x,0.2,19%,3%,1
Nc1c(C(=O)NC2CCCCC2)c2nc3ccccc3nc2n1/N=C/c1ccco1,-1,x,x,u,-4%,x,x
COc1cc(/C=C/C(=O)Nc2ccc(N3CCCCC3)c(S(=O)(=O)Nc3ccccc3Cl)c2)cc(OC)c1OC,-6,u,-1.7%,1.9,2%,4%,-1
COC(CNC(=O)CC1C(=O)N(Cc2ccccc2)C(C)c2nc3ccccc3n21)OC (stereo not drawn),-34,-6%,0.4%,-4.7,11%,-3%,15
Clc1cccc(Nc2nc(-c3cccnc3)cs2)c1,-5,u,0.7%,1.7,-6%,-4%,-6
Cc1ccc(N(C(=O)c2ccn[nH]2)C(C(=O)NC2CCCC2)c2cccs2)cc1 (stereo not drawn),-6,x,x,4.7,13%,x,x
CC1(C)CC(=O)C2(CC3=C(CC(C)(C)CC3=O)O2)C(=O)C1,u,-20%,0.5%,1.6,-9%,9%,-5
COc1ccc(/C=C/C(=O)OCC(=O)N2CC(=O)Nc3ccccc32)cc1,23,33%[15.4 µM],-4.6%,0.2,11%,-11%,-1
O=C(OCc1nnc(-c2ccc(Cl)cc2)o1)c1ccc(O)cc1,-9,1%[15.4 µM],x,2.5,-8%,-11%,2
COc1ccc(Cl)cc1NC(=O)NCC1CCN(Cc2cc(C)ccc2C)CC1,-10,3%,0.2%,0.4,-1%,10%,x
COc1ccc(-c2ccc(S(=O)(=O)N3CCOCC3)cc2)cc1,14,6%,u,2.1,10%,14%,7
CCN(CC(=O)Nc1c(F)cccc1F)C(=O)C1=COCCO1,-2,-13%,0.7%,x,x,12%,-4
Nc1ccccc1C#Cc1cnccn1,x,x,-0.5%,x,x,6%,7
Cc1ccccc1C(=O)N1CCC(C(=O)N2CCN(c3ncccn3)CC2)CC1,1,-17%,-13%,x,x,2%,0
CN(C(=O)COC(=O)C1CCN(S(=O)(=O)c2c(Cl)cccc2Cl)CC1)c1ccccc1,-6,-1%[15.4 µM],x,x,x,-5%,-9
N#Cc1c(N)n(-c2ccccc2N)c2nc3ccccc3nc12,u,u,x,7.7,2%,2%,-11
CC(C)N(C(=O)Cn1cnc2cc([N+](=O)[O-])ccc2c1=O)C(C)C,-1,x,x,-0.2,19%,x,x
CCN(CC(=O)Nc1c(F)cccc1F)C(=O)c1ccc(OC)c(S(=O)(=O)NC2CCCC2)c1,x,-30%,-0.5%,x,x,x,-2
O=c1c2ccccc2nc2n1C(CSc1ccc(F)cc1)CN2 (stereo not drawn),x,21%,-3.2%,1.3,23%,5%,12
C=CCOC(=O)C1=C(C)NC(=S)NC1c1cccs1 (stereo not drawn),-3,-41%[inhibitor],0.2%,1.1,-7%,5%,0
Cc1cc(C)n(-c2ncnc3sc4c(c23)CC(C)CC4)n1 (stereo not drawn),-5,u,u,-2.7,3%,2%,-5
CN(C)c1ccc(CN(C(=O)c2cccs2)C2CCS(=O)(=O)C2)cc1 (stereo not drawn),21,0%[15.4 µM],1.6%,-10,3%,-6%,-1
O=C(Nc1cccc(C(F)(F)F)c1)c1ccco1,-18,24%,-2.9%,5.7,11%,1%,4
NC(Cc1cccc2nsnc12)C(=O)O (stereo not drawn),25,u,-12%,0.3,-14%,4%,-1
Cc1ccc([C@@H]2[C@@H]3C(=O)N(C)C(=O)[C@@H]3[C@]3(C)C(=O)N(Cc4ccccn4)CC(=O)N23)o1,-13,-54%[inhibitor],-0.3%,0.4,-4%,6%,7
CCOc1cc(/C=C2/C(=O)ON=C2C)ccc1O,4,-29%,-0.7%,u,-19%,-26%,7
CC1(C)COC(c2ccc(F)c([N+](=O)[O-])c2)=N1,1,-8%,-4.8%,1.4,11%,0%,2
COCCCNC(=O)CCc1c(C)nc2c(c(C)nn2-c2ccccc2)c1C,-16,u,3.8%,-1.4,3%,-1%,0
C/C(=C\C(=O)O)C(=O)Nc1nccs1,2,-11%,-1.4%,-3.1,-4%,10%,0
O=C(O)c1ccc(N/N=C/c2cn(Cc3ccc(F)cc3)c3ccccc23)cc1,10,-3%,3.7%,0.3,-13%,-29%,4
COc1ccc(NC(=O)COC(=O)c2c3c(nc4ccccc24)CCCC3)cc1,u,11%,-5.2%,-0.1,5%,-4%,-15
O=C(Nc1cc(S(=O)(=O)N2CCOCC2)ccc1N1CCOCC1)c1cnccn1,-8,29%,-0.8%,x,5%,3%,20
Cc1sc(-n2c(C)cc(C=O)c2C)c(C(=O)O)c1C,-2,16%,-2.0%,2.1,4%,-2%,13
O=S(=O)(c1ccc2nc(Cc3cccc(C(F)(F)F)c3)[nH]c2c1)N1CCOCC1,-3,-1%,-2.3%,0.3,-6%,3%,5
CCCCOc1ccc(Br)cc1/C(C)=N/NC1=NCCN1,-13,29%,-1.2%,1.7,15%,11%,-3
O=c1n(Cc2ccc(Cl)cc2)c2sc3c(c2c2ncnn12)CCCC3,6,u,2.8µM*,1.7,-23%,13%,-18
O=C(NCc1ccncc1)c1ccc(Br)cc1,10,8%,2.4%,0.7,-1%,9%,9
CCC(C)(C)NC(=O)C1c2ccccc2Oc2ccccc21,3,4%[15.4 µM],x,-3.5,15%,-2%,x
CN1CCN(c2ccc(NC(=O)N3CCc4ccccc43)cc2)CC1,-15,-25%,-5.6%,-8.9,10%,-11%,-8
O=C(NC(=S)Nc1cccc(C(F)(F)F)c1)c1ccc2nonc2c1,21,5%[15.4 µM],x,2.2,u,u,-20
Cc1cc(Cl)ccc1OCCCC(=O)N1CCCc2ccccc21,-6,-35%[inhibitor],-1.1%,-9.0,-27%,-4%,4
CCC1(c2ccccc2)NC(=O)N(CC(=O)NC2(C#N)CCCCC2)C1=O (stereo not drawn),3,-27%,-3.6%,x,x,10%,-9
Cc1ccsc1/C=N/NC(=O)C(=O)NCC(C)C,-5,0%[15.4 µM],x,1.9,5%,x,-17
Cc1cc2cc(CNC(=O)c3ccc(S(=O)(=O)N(C)C)cc3)ccc2n1C,-3,u,-2.0%,u,-8%,4%,-7
Cc1cc(C(=O)N2CCN(C/C=C/c3ccccc3)CC2)no1,-6,-25%,-1.7%,1.3,-7%,0%,4
COC(=O)c1cnn(-c2ccccc2)c1/C=N/NC(=S)Nc1ccccc1,9,-1%,0.4%,-0.6,32%[activator],-23%,-5
COC(=O)c1cccc(NC(=O)Cc2nc(-c3ccccc3)sc2-c2ccc(C)cc2)c1,0,11%,-13%,x,-6%,-8%,4
Cn1c2ccccc2c2ncn(CCN3CCOCC3)c(=O)c21,13,-7%,32µM*,4.6,1%,4%,-2
COc1cc(OC)cc(C(=O)N[C@H](C(=O)OCC(=O)Nc2ccc(C(C)C)cc2)C(C)C)c1,-4,-7%[15.4 µM],x,1.0,12%,u,4
Cc1ccc(S(=O)(=O)CC(=O)Nc2nnc(C(C)(C)C)s2)cc1,7,5%[15.4 µM],x,3.1,u,-9%,0
# The listing continues.
SMILES,TRPV1 PAM,gsp agonist,ClpP mod,Menin-MLL FL inh,Sfp inh,gsp antagonist,CtBP-E1A inh
CN1C[C@H](C(=O)NC2(C)OC3(O)[C@@H]4CCCN4C(=O)[C@H](Cc4ccccc4)N3C2=O)CC2c3cccc4[nH]cc(c34)C[C@H]21 (stereo partly drawn),x,x,-0.4%,x,x,-10%,-1
CCn1c(COc2ccccc2)nnc1SCC(=O)Nc1cc(C)ccc1OC,14,-22%,0.5%,3.0,4%,-21%,-6
CC(C)Nc1nc(Cl)nc(NN(C)c2nc(N(C)C)nc(N(C)C)n2)n1,-10,-29%,-2.1%,7.1,-11%,-6%,12
O=C(NCc1n[nH]c(=S)n1-c1ccccc1)c1ccc(S(=O)(=O)N2CCOCC2)cc1,7,-1%,-2.3%,0.5,-15%,0%,-2
CCOc1ncccc1C(=O)OCC(=O)NCc1ccccc1,x,u,x,x,x,7%,8

# Not a hit list, and some 5.3% of all compounds hit somewhere here.
